CtBP-E1A inh – inhibitors of CtBP/E1A interaction | AlphaScreen GST-E1A/His-CtBP binding, 1536-well; hits give low values; control for the full effect not named in the record | activity change, % (no concentration beside the values) | 340,000 compounds, 0.49% hits; in the data active means activity change below about -65%; inconclusive means about -30% to -65%; inactive means above about -30%; also: % is scaled to controls: 0 for no effect and ±100 for the full control effect
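In 5 uL wells, 23 nL compound meets equimolar GST-E1A and His-CtBP (5X stock 125 nM each) for 2 h, 37 °C. Beads (5X, 50 ug/mL) then 1 h, 37 °C, dark.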
TRPML1 ag – agonists of human TRPML1 channel | Q9GZU1 | TRPML1-expressing cells, Ca2+ dye fluorescence, FDSS; host cell line not named in the record; reference of the full effect not given here | activation, % (test concentration not listed) | 410,000 compounds, 0.12% hits | AID 624414; in the data active = activation above about 50%; inconclusive = about 30% to 50%; inactive = below about 30%; also: 0% is about no effect; the text of the record puts the active cut at 80%
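Calcium fluorescence on an FDSS kinetic reader gave the read-out. Tet-induced TRPML1-DL cells were plated overnight, dye-loaded (Ca8 with quencher, 45-90 min, room temperature, dark), then read 110 s after compound addition, and again 110 s after 4uM final 54-4 (EC80).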
D2 PAM – positive allosteric modulators of human D2 dopamine receptor; P14416; DiscoveRx D2 beta-arrestin cells, luminescence, 90 min; 100% = 57 uM dopamine signal; potentiation, % (test concentration not listed); 360,000 compounds, 0.23% hits; active = potentiation of 50% or more; inconclusive = 30% to 50%; inactive = 30% or less;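 also: compound concentration not given in the record; tested on top of an EC20 dose of dopamine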
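D2 cells co-treated with compound plus 50 nM dopamine (EC20) for 90 min at 37 deg C to detect potentiation. Beta-arrestin recruitment was read as enzyme-fragment luminescence after 1 h at ambient temperature. Full response was set by 57 uM dopamine.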
TRPML1 blocker – inhibitors of human TRPML1 channel | TRPML1-inducible cells, Ca2+ dye fluorescence, FDSS; hits give low values; inhibition of EC80 agonist-evoked calcium signal | Q9GZU1 | 390,000 compounds, 0.02% hits | activity change, negative = inhibition, % (no concentration beside the values); in the data active means activity change below about -50%; inconclusive means about -30% to -50%; inactive means above about -30%;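 also: stimulus is agonist 54-4 at its EC80 concentration; % is scaled to controls: 0 for no effect and ±100 for the full control effect; compound concentration not given in the record; the text of the record puts the active cut at -80%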
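Calcium fluorescence in TRPML1-DL cells induced overnight with Tet: a 110 s read after compound pin addition, then a 110 s antagonist read after challenge with 54-4 at 4 uM final (EC80).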
TRPV1 PAM – human TRPV1 potentiation; Q8NER1; TRPV1-expressing cells, Fluo-8 calcium influx, capsaicin EC20 potentiation; host cell line not named in the record; control for the full effect not named in the record; potentiation, % at 8.33 µM; 320,000 compounds, 0.02% hits; active means potentiation above 80%; inconclusive means 30% to 80%; inactive means below 30%; also: 0% is about no effect
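Fluo-8 calcium influx in TRPV1-expressing cells, kinetic read (ex 480/em 520 nm). Compound added and read 3 min for agonist activity, followed by capsaicin at EC20 final and 2 min further read for enhancement.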
Six1-Eya2 inh – Six1/Eya2 interaction inhibition; Q15475+O00167; AlphaScreen GST-Six1/His-Eya2 binding, biochemical; hits give low values; control for the full effect not named in the record; activity change, % (no concentration beside the values); 360,000 compounds, 0.56% hits; AID 651725; in the data active = activity change below about -65%; inconclusive = about -30% to -65%; inactive = above about -30%; also: % is scaled to controls: 0 for no effect and ±100 for the full control effect
Target sequence (O00167 whole entry, looked up): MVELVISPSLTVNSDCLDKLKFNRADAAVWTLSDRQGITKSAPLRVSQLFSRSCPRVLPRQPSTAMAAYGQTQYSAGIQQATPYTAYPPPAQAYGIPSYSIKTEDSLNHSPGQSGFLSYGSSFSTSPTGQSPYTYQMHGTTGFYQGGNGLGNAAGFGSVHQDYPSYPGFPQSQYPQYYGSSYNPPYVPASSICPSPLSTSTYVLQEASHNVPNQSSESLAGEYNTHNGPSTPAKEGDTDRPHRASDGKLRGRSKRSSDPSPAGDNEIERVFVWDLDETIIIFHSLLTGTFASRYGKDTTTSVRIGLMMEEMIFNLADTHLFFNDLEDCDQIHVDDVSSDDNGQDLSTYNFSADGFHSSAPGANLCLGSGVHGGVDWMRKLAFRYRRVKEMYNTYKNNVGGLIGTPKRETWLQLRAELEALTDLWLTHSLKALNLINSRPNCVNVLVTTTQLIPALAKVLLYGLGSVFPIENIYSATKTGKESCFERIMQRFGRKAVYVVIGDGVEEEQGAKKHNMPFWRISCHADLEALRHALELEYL
Target sequence (Q15475 whole entry, looked up): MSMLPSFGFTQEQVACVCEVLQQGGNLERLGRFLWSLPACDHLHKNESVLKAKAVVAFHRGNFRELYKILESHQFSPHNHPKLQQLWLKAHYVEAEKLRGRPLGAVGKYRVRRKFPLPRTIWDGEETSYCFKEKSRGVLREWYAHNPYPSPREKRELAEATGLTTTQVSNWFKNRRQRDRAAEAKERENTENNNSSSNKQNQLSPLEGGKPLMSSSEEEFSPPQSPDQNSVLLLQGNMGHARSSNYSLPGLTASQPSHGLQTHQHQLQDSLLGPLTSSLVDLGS
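Homogeneous AlphaScreen proximity assay pairing GST-Six1 with His-tagged Eya2 (added as 5X mix: 250 nM and 500 nM) in 50 mM Tris pH 8.0, 300 mM NaCl, 1 mM TCEP. Glutathione donor and nickel acceptor beads; 1 h, 37 °C, dark.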
* = called active by the depositor; ? = inconclusive; · = no result given; & = joins results of further samples.

A first look (four entries):
SMILES | CtBP-E1A inh | TRPML1 ag | D2 PAM | TRPML1 blocker | TRPV1 PAM | Six1-Eya2 inh
COc1ccc(NS(=O)(=O)c2cccc(C(=O)NCC(c3ccco3)N3CCCCC3)c2)cc1 (centres undefined) | -10 | 1.5 | -5 | -13 | ? | 3
CCOc1ccc(C(=O)NC2CCN(S(C)(=O)=O)CC2)cc1 | -1 | 0.4 | -3 | 14 | -6 | 6
Cn1c(=O)c2c(ncn2CC(=O)OCC(=O)Nc2ccc(F)cc2Cl)n(C)c1=O | 6 | -0.3 | -6 | -4 | · | -4
CCNc1oc(COc2cccc(C)c2)nc1C#N | -4 | -0.2 | -6 | 26 | -15 | -2

Results (from the top)
SMILES | CtBP-E1A inh | TRPML1 ag | D2 PAM | TRPML1 blocker | TRPV1 PAM | Six1-Eya2 inh
COc1ccc(NS(=O)(=O)c2cccc(C(=O)NCC(c3ccco3)N3CCCCC3)c2)cc1 (centres undefined) | -10 | 1.5 | -5 | -13 | ? | 3
CCOc1ccc(C(=O)NC2CCN(S(C)(=O)=O)CC2)cc1 | -1 | 0.4 | -3 | 14 | -6 | 6
Cn1c(=O)c2c(ncn2CC(=O)OCC(=O)Nc2ccc(F)cc2Cl)n(C)c1=O | 6 | -0.3 | -6 | -4 | · | -4
CCNc1oc(COc2cccc(C)c2)nc1C#N | -4 | -0.2 | -6 | 26 | -15 | -2
O=C1c2ccccc2C(=O)N1c1nccs1 | -4 | 2.4 | -2 | -6 | · | 6
COc1ccccc1/C=N/Nc1cc(C)nc2ccc(C)cc12 | -2 | 0.9 | -3 | -8 | 18 | -6
COc1ccc(S(=O)(=O)N2CCN(S(=O)(=O)c3ccc4c(c3)OCCO4)CC2)cc1C | -1 | -0.2&1.9 | -6 | -7 | 1 | 4
Cc1csc(Sc2ccc(C(=O)OCC(=O)Nc3ccc(F)cc3[N+](=O)[O-])cc2[N+](=O)[O-])n1 | 2 | -0.7 | 5 | 36 | -2 | -5
Fc1ccc(C2CC(c3ccco3)=NN2c2ccccc2)cc1 (centres undefined) | 162 | 3.0 | -3 | -12 | 20 | 153
COc1ccc(NC(=O)Nc2cccc(C(F)(F)F)c2)cn1 | -6 | 4.2 | -2 | 22 | -16 | -6
CCO[C@H]1OC(C(N)=O)=C[C@@H](C(C)(C)C)[C@@H]1CCCO | 3 | -0.1 | -1 | -7 | · | 4
CC1CCC(NC(=O)CN2C(=O)NC3(CCCCC3C)C2=O)CC1 (centres undefined) | -5 | -0.4 | -6 | -11 | 4 | 2
Nc1cc(=O)[nH]c(SCC(=O)Nc2cc([N+](=O)[O-])ccc2Cl)n1 | -2 | 2.5 | -4 | -10 | -6 | 12
COc1ccc(S(=O)(=O)N(C)c2ccc(C(=O)NC3CCCC3)cc2)cc1 | 0 | 0.5 | 3 | -13 | 13 | 3
O=[N+]([O-])c1cccc(/C=N/Nc2nc(NCc3ccccc3)nc(N3CCOCC3)n2)c1O | -67* | 0.2 | -39 | -17 | -16 | -94*
N#Cc1cccc(Oc2ccc(S(=O)(=O)N3CCCC3)cn2)c1 | -15 | -0.2 | 1 | 24 | 22 | 2
Cn1nnnc1NCc1c(F)cccc1Cl | 12 | 0.6 | -2 | -5 | -2 | 8
O=C(Cc1cccs1)N1CCN(S(=O)(=O)c2ccccc2)CC1 | 27 | -0.2 | -1 | 3 | -11 | -2
CCOC(=O)c1ccc(Nc2nnc(C(C)(C)C)c(=O)[nH]2)cc1 | -1 | 2.2 | -10 | 3 | -7 | -1
CN(C(=O)COC(=O)c1ccc(Cl)c(S(=O)(=O)NCc2ccccc2)c1)C1CCS(=O)(=O)C1 (centres undefined) | 6 | 1.6 | -10 | 3 | · | 1
COCCn1c(C(=O)N2CCCC2)cc2c1C[C@H]1CN(C(=O)c3ccccc3)[C@@](Cc3ccc(F)cc3)(C(=O)OC)[C@@H]21 | -2 | 1.0 | -25 | 7 | -11 | -5
Cc1nc(-c2ccccn2)nc(SCC(=O)N2CCOCC2)c1Cl | · | 0.3 | -2 | 18 | 9 | -4
O=C(CN1CCOCC1)Nc1ncc(Cc2cccc(Cl)c2Cl)s1 | -8 | 0.0 | 3 | 27 | -10 | -4
CN(c1ccc(C(=O)NCC2CCCO2)cc1)S(=O)(=O)c1ccccc1 (centres undefined) | -3 | 0.4 | -8 | -9 | -3 | 8
Cc1cc(NC(=O)Cn2c(=O)n(Cc3ccccc3)c(=O)c3ccccc32)no1 | -9 | -0.4 | -10 | 0 | 10 | 5
CCOC(=O)CNC(=O)c1sc(NC(=O)c2cccc(F)c2)nc1C | -1 | 3.0 | -6 | 16 | 0 | 1
CCOCCCNC(=O)C(=O)NCCCOCC | -6 | 0.8 | 1 | 19 | 11 | 5
Cc1ccc(-n2c(Cn3ncc4ccccc4c3=O)n[nH]c2=S)cc1 | 4 | -0.6 | -12 | 20 | -5 | 1
O=C(NCCc1ccccc1)c1ccc(CS(=O)Cc2cccc(Cl)c2)o1 (centres undefined) | 2 | -0.8 | -17 | 18 | -13 | 0
CCOCCCNCc1ccc(OCc2ccccc2Cl)cc1 | 14 | 0.2 | -12 | 6 | 11 | 0
Cc1cc2occ(CC(=O)NNC(=O)c3ccccc3)c2cc1C | 0 | 0.6 | -13 | -20 | 10 | 0
CC(=O)N/C(N)=N/c1nc2cc(C)ccc2o1 | · | -0.7 | -17 | 5 | 2 | -2
Cc1ccc(-n2cc(CNC(C)c3cnn(C)c3)c(-c3ccc(F)cc3)n2)cc1 (centres undefined) | -5 | -0.3 | -15 | 1 | 1 | -6
Cc1sc(N2C(=O)C3C4C=CC(C4)C3C2=O)c(C#N)c1C (centres undefined) | 2 | -0.6 | 2 | 19 | 3 | 3
O=C1CC(N2CCN(c3ccc(F)cc3)CC2)C(=O)N1c1ccc(F)cc1 (centres undefined) | 0 | 0.2 | -1 | 0 | -4 | -5
C#CCOCCOCCOCCNc1nc(N2CCN(C(=O)[C@H](CCC(=O)O)n3cc([C@@H](N)CO)nn3)CC2)nc(N2CCN(C(=O)[C@H](CCC(=O)O)n3cc([C@@H](N)CCSC)nn3)CC2)n1 | -13 | -0.6 | · | 35 | · | -9
Cc1ccc2[nH]c3c(=O)n(CCC4=CCCCC4)cnc3c2c1 | 1 | -0.2 | -9 | 16 | 0 | -2
O=C(COC(=O)CC1CC2CCC1C2)NCc1ccc(F)cc1 (centres undefined) | 7 | 0.1 | 0 | -8 | · | 2
Cc1ccc(N(CC(O)CN2CCCCC2)S(=O)(=O)c2ccccc2[N+](=O)[O-])cc1 (centres undefined) | 0 | -0.6 | -21 | -4 | 5 | 4
Cn1ncc([N+](=O)[O-])c1C(=O)Nc1nccs1 | 5 | -0.5 | -23 | 9 | 3 | -1
COc1ccc2[nH]c3c(c2c1)CCN1C(=O)C(CC(=O)NC(C)(C)C)C[C@H](C(=O)N(C(C)C)C(C)C)[C@@]31C (some centres undefined) | -3 | -0.5 | · | 5 | · | 5
CN(C)C(=O)C1CCC(=O)N1Cc1cccs1 (centres undefined) | · | 0.2 | -8 | 2 | 11 | -1
CCOC(=O)NC(=O)c1cn(Nc2ccccc2)c(=O)[nH]c1=O | -4 | -0.4 | -1 | 4 | -11 | 1
O=NN(CC(=O)NNc1ccccc1)CC(=O)NNc1ccccc1 | 11 | -0.3 | -10 | · | · | 13
CCc1ccc(/C=C2/SC(=S)N(CCC(=O)Nc3cccc(C(=O)O)c3)C2=O)cc1 | 14 | 0.2 | 1 | -7 | -8 | 7
O=C(Nc1ccc(Oc2ccccc2)cc1)c1ccc2sc([C@H]3C[C@H](O)[C@@H](CO)O3)nc2c1 | 0 | -0.6 | 10 | · | · | -7
Cc1ccc(NS(=O)(=O)c2ccc(C(=O)OCC(=O)Nc3cc(C)on3)cc2)cc1 | · | 18 | -12 | 2 | 26 | 0
Cc1ccc(-c2nnc(C)c(N3CC(C)OC(C)C3)n2)cc1 (centres undefined) | 3 | -0.3 | 11 | -7 | 4 | 3
O=C(NNS(=O)(=O)c1ccc(Cl)cc1)c1cccc(S(=O)(=O)N2CCOCC2)c1 | · | -0.9 | -14 | -7 | 7 | 3
COc1cc(OC)cc(C(=O)NCC(=O)N2CCCCC2)c1 | 6 | -0.7 | -22 | -3 | -11 | 6
COc1ccc(Cl)c2sc(N(CCN(C)C)C(=O)CCS(=O)(=O)c3ccc(C)cc3)nc12 | -1 | -0.5 | -7 | 40 | -7 | 9
Cc1ccc(N2CC(C(=O)N3CCC(C(=O)Nc4nncs4)CC3)CC2=O)cc1 (centres undefined) | 0 | -0.4 | -4 | -8 | -2 | 6
CCC(C)(C)n1nnnc1C(c1ccc(C)cc1)N(Cc1ccco1)Cc1cccs1 (centres undefined) | -4 | 13 | -3 | -7 | -5 | -2
O=c1[nH]c2ccccc2nc1N1CCOCC1 | -1 | 0.3 | -4 | 3 | 11 | 8
CC(C)(CNC(=O)c1ccc(S(=O)(=O)Nc2ccc(Cl)cc2)cc1)N1CCOCC1 | -5 | -0.1 | -6 | 0 | 8 | 4
CC1(C(=O)NC2CCCC2)CCC(=O)N1Cc1ccccc1 (centres undefined) | 5 | 0.2 | -8 | ? | -1 | 0
NC(=O)c1nsc(C(=O)N(c2ccc3c(c2)OCCO3)C(C(=O)NCC2CCCO2)c2ccc(F)cc2)c1N (centres undefined) | -2 | -0.2 | -8 | -2 | -9 | 8
Cc1ccc(C)c2[nH]c(=O)c(CN(CCN3CCOCC3)Cc3nnnn3CC3CCCO3)cc12 (centres undefined) | 0 | 0.5 | -17 | -6 | 19 | -3
CC(C(=O)NCC1CCCO1)N1C(=O)C2C3CC(C(Br)C3Br)C2C1=O (centres undefined) | 5 | 1.0 | -6 | -8 | -3 | 6
Cc1cnc(C(=O)OCC(=O)c2ccc[nH]2)cn1 | -2 | -0.5 | 5 | -7 | -11 | 0

Later entries.
SMILES | CtBP-E1A inh | TRPML1 ag | D2 PAM | TRPML1 blocker | TRPV1 PAM | Six1-Eya2 inh
CCCOC(=O)/C(C(N)=NCc1ccccc1)=C(\O)OCCC | 15 | 10 | -7 | -15 | -17 | 10
C/C(=C\C(=O)c1ccc(Br)cc1)Nc1cccc(Cl)c1 | 15 | -0.1 | 9 | -2 | · | 9
O=C(CC(NS(=O)(=O)c1ccc(Cl)cc1)c1ccco1)NC1CCCC1 (centres undefined) | 3 | -0.8 | -12 | 4 | 0 | 1
COc1ccc(-c2nc(S(=O)(=O)c3ccccc3)c(NCCCN3CCOCC3)o2)cc1 | · | -0.7 | -11 | 9 | · | -10
COc1ccc(NC(=O)Nc2cccc3c2O[C@H](CN(C)S(=O)(=O)c2ccccc2)[C@@H](C)CN([C@H](C)CO)C3=O)cc1 | 3 | 0.4 | -7 | 15 | · | -1
Cc1ccccc1-c1nnc(SCC(=O)NC2CCCC2)n1C | 3 | -0.3 | 0 | 9 | -3 | 5
CCn1cc(C(C)(C)C)c(C#N)c1NC(C)=O | 7 | 0.1 | -25 | -1 | 6 | -6
CNc1cc(NS(=O)(=O)c2ccc(N)cc2)nc(NC)n1 | -22 | 1.3 | 0 | 13 | 6 | 2

Looked up above.
CtBP-E1A inh with CCn1cc(C(C)(C)C)c(C#N)c1NC(C)=O → 7
D2 PAM with O=C(CC(NS(=O)(=O)c1ccc(Cl)cc1)c1ccco1)NC1CCCC1 (centres undefined) → -12

Bioassay records as filed in PubChem BioAssay.
